Screening data as filed in PubChem.
2A StopGo – High Throughput Screening for Foot and Mouth Disease Virus Antivirals; 1.2% of 410,000 active; Potency, µM (titrated, usually from 57.9 µM), for the others: at the highest dose signal change, negative = less light; human cells with a luciferase reporter of 2A StopGo recoding; control for the full effect not named in the record; active = well fitted falling curve with a large enough effect; inconclusive = small, poorly fitted or top-dose-only effect; inactive = no such curve, though single readings can be large or run the other way; tested in HEK293T cells; further: nearly all actives have a fitted effect of over 45% in size; luciferase light after 4 h
RE007 growth inh – qHTS Assay for Inhibitors of the HIV-1 protein Vpr; Potency, µM (series often up to 92.2 µM), for inactives: at the highest dose activity change, negative = less growth; 0.21% of 360,000 active; S. pombe RE007 Vpr strain, BacTiter-Glo ATP luminescence, 24 h; control for the full effect not named in the record; active = well fitted falling curve with a large enough effect; inconclusive = small, poorly fitted or top-dose-only effect; inactive = no such curve, though single readings can be large or run the other way;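 further: nearly all actives have a fitted effect of over 50% in size; the assay follows cell death caused by Vpr and the record does not say whether a fall means rescue or toxicity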
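Fission yeast strain RE007, carrying one chromosomally integrated HIV-1 vpr copy, was seeded at OD 0.01 in PMG+AL medium with 23 nL pinned compound. After 24 h at 30 °C and 99% humidity, viability was read by BacTiter-Glo luminescence.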
* = called active by the depositor; ? = inconclusive; [ ] = another dose, or the depositor's remark. On the % scale 0 is the no-effect control and ±100 the full control effect; potency means the concentration at half of the fitted maximal effect. Some of the compounds tested, so the mix of outcomes need not match the whole.

Screens in order: RE007 growth inh	2A StopGo
COC(=O)[C@@]12C[C@@H](CC(=O)NCC3CCCCC3)C(=O)N(Cc3ccc4c(c3)OCO4)C1=CCC(C)(C)C2
  ?	17%
O=C(COC(=O)c1ccc2ccccc2c1)NCc1ccccc1
  -2%	0%
CCCCN(C)c1c(C)nc2ccc(C(=O)N3CCN(C(C)=O)CC3)cn12
  -11%	-10%
CC(=O)OCc1ccc(C2=CC(=O)CC(C)(C)C2=O)cc1
  -29%	-17%
CC(=O)OC[C@@H]1CN(Cc2cccc(C(F)(F)F)c2)C[C@H](n2cnc3c(N4CCOCC4)ncnc32)O1
  13%	-17%
O=C(Nc1ccccc1)c1cn(CCBr)cn1
  -28%	18%
CCN(CC)S(=O)(=O)c1ccc(C(=O)NCC(=O)NCc2ccc3c(c2)OCO3)cc1
  3%	-2%
CCOC(=O)C[C@H]1c2cc(F)ccc2S(=O)(=O)N1C1CCCC1
  -13%	4%
O=C(c1cccs1)N1C[C@H](O)[C@@H](n2cc(C3CC3)nn2)C[C@@H]1c1ccccc1
  8%	-13%
COC(=O)[C@@H]1C[C@]2(C(=O)O)c3ccccc3N(OOSc3ccccc3)[C@@H]2N1C(=O)OC
  -8%	-9%
Clc1cccc(Cc2c(C3CCCCC3)nc3c4ccccc4ccn23)c1
  ?	0%
COCc1cccc(-c2csc(C(C)(NC(C)=O)c3ccc(OC)cc3)n2)c1 (stereo not given)
  17%	-6%
CC(C)C[C@@H]1CN(CCCC[C@H]2CNC(=O)C(=O)N2CCC2CCCCC2)C(=O)C(=O)N1CC1CCCCC1
  -13%	-7%
c1ccc(Cn2nnc3c(NCC4CC4)ncnc32)cc1
  13%	6%
Cc1cccc(-n2cnc3cc(C(=O)NCCN4CCOCC4)ccc32)c1
  -6%	-17%
COc1cc(Cl)c(C)cc1NC(=O)CN1CCN(C(=O)c2cccs2)CC1
  -13%	?
CCCCNc1nccnc1-c1cccc(C=O)c1
  0%	-20%
COc1ccc2c(CN3CCN(c4ccccc4OC)CC3)cc(=O)oc2c1
  6%	?
CN(C(=O)c1cccc(NC(=O)Cc2ccc(NC(=O)C3CCCN(C(=O)C4CC4)C3)cc2)c1)C1CCCCC1 (stereo not given)
  -12%	-13%
COC(=O)C1=C(c2ccc(S(C)(=O)=O)cc2)C[C@@H]2CC[C@H]1N2C(=O)NCc1ccco1
  -1%	-3%
Cc1ccc(C(O)c2ncc(-c3ccc(Cl)cc3)[nH]2)cc1F (stereo not given)
  -9%	0%
O=[N+]([O-])c1cccnc1Oc1cc(Cl)c(Cl)cc1Cl
  -26%	0%
CN(C(=O)c1cccc(NC(=O)Cc2ccc(NC(=O)C3CCCN(C(=O)C4CCCCC4)C3)cc2)c1)C1CC1 (stereo not given)
  2%	-16%
C[C@H]1CN([C@@H](C)CO)S(=O)(=O)c2ccc(C#Cc3cccnc3)cc2O[C@@H]1CN(C)C(=O)Nc1ccc2c(c1)OCO2
  -10%	58%[activator]
O=C1O[C@@H](c2ccccc2)C[C@@H](O)[C@H](O)CCCCc2ccccc21
  -3%	-7%
Cc1ccc2c(Cl)c(C(=O)NCCCN3CCOCC3)sc2c1
  -2%	53%[activator]
C=CCNc1nc2cc(-c3ccccc3OC)sc2c(=O)n1C
  -6%	51%[activator]
CC(C)NC(=O)c1cc(C2CCCCN2S(=O)(=O)c2ccc(F)cc2F)on1 (stereo not given)
  7%	-8%
Cc1ccc2c(NCc3ccco3)nc(NC(C)C)nc2c1
  ?	-27%
COc1ccccc1C(NC(=O)C1CCN(CCOc2ccccc2)CC1)c1ccccn1 (stereo not given)
  -17%	-11%
Cc1ccc(CN2CCNC(=O)C2CC(=O)NCCCn2nnc3ccccc32)cc1 (stereo not given)
  4%	-5%
Nc1nc2ccccc2cc1C(=O)NCc1ccc(-c2ccccc2)cc1
  ?	?
CC(=O)c1cccc(-c2ccnc3c2CC(C(=O)NCC2CCOCC2)O3)c1 (stereo not given)
  4%	-4%
COCCNc1ncnc2c1ncn2[C@H]1CN(Cc2cc(OC)c(OC)c(OC)c2)C[C@@H](CO)O1
  7%	-17%
CC(=O)Nc1ccc(CN2C(=O)C(C)ON=C2c2ccccc2-c2ccco2)cc1 (stereo not given)
  -8%[18.4 µM]	-20%
CN(Cc1cnn(-c2ccc(F)cc2)c1)C(=O)[C@H]1O[C@@H](n2ccc(N)nc2=O)[C@H](O)[C@@H]1O
  3%	-7%
C[C@H]1CN([C@@H](C)CO)S(=O)(=O)c2ccc(C3=CCCC3)cc2O[C@@H]1CN(C)C(=O)C1CCCCC1
  1%	21%
CCCCN1C(=O)C(CC(=O)NCc2cccs2)CC(C(=O)N(CC)CC)=C1C (stereo not given)
  8%	-11%
O=C(Nc1ccccc1)C1CCOC1=O (stereo not given)
  -9%	-11%
COC(=O)[C@]1(Sc2ccccc2)CC(=O)N[C@@H]1c1ccccc1
  43%	-3%
O=C1OC(c2cccs2)Sc2ccccc21 (stereo not given)
  5%[18.4 µM]	-21%
CCN1C(=O)[C@H]2[C@@H](c3ccc(C)cc3)N[C@]3(CCCN(CCC(C)C)C3=O)[C@H]2C1=O
  -12%	-10%
Cc1cc(C)n2c(NC3CCCCC3)c(CC(C)C)nc2n1
  ?	-16%
CC1(C)S[C@@H]2[C@H](NC(=O)COc3ccccc3)C(=O)N2C1C(=O)OCc1ccccc1 (stereo not given in full)
  4%	-9%
CCOC1=C2[C@@H](CN(S(=O)(=O)c3ccc(C)cc3)[C@H]2c2ccccc2Cl)[C@H]2C(=O)N(C)C(=O)[C@H]2C1
  -4%	32%[activator]

Part of the list above, with bars between the fields:
Structure | RE007 growth inh | 2A StopGo
Cc1ccc2c(Cl)c(C(=O)NCCCN3CCOCC3)sc2c1 | -2% | 53%[activator]
C=CCNc1nc2cc(-c3ccccc3OC)sc2c(=O)n1C | -6% | 51%[activator]
CC(C)NC(=O)c1cc(C2CCCCN2S(=O)(=O)c2ccc(F)cc2F)on1 (stereo not given) | 7% | -8%
Cc1ccc2c(NCc3ccco3)nc(NC(C)C)nc2c1 | ? | -27%
COc1ccccc1C(NC(=O)C1CCN(CCOc2ccccc2)CC1)c1ccccn1 (stereo not given) | -17% | -11%
Cc1ccc(CN2CCNC(=O)C2CC(=O)NCCCn2nnc3ccccc32)cc1 (stereo not given) | 4% | -5%
Nc1nc2ccccc2cc1C(=O)NCc1ccc(-c2ccccc2)cc1 | ? | ?
CC(=O)c1cccc(-c2ccnc3c2CC(C(=O)NCC2CCOCC2)O3)c1 (stereo not given) | 4% | -4%
COCCNc1ncnc2c1ncn2[C@H]1CN(Cc2cc(OC)c(OC)c(OC)c2)C[C@@H](CO)O1 | 7% | -17%
CC(=O)Nc1ccc(CN2C(=O)C(C)ON=C2c2ccccc2-c2ccco2)cc1 (stereo not given) | -8%[18.4 µM] | -20%
CN(Cc1cnn(-c2ccc(F)cc2)c1)C(=O)[C@H]1O[C@@H](n2ccc(N)nc2=O)[C@H](O)[C@@H]1O | 3% | -7%
C[C@H]1CN([C@@H](C)CO)S(=O)(=O)c2ccc(C3=CCCC3)cc2O[C@@H]1CN(C)C(=O)C1CCCCC1 | 1% | 21%
CCCCN1C(=O)C(CC(=O)NCc2cccs2)CC(C(=O)N(CC)CC)=C1C (stereo not given) | 8% | -11%
O=C(Nc1ccccc1)C1CCOC1=O (stereo not given) | -9% | -11%
COC(=O)[C@]1(Sc2ccccc2)CC(=O)N[C@@H]1c1ccccc1 | 43% | -3%
O=C1OC(c2cccs2)Sc2ccccc21 (stereo not given) | 5%[18.4 µM] | -21%
CCN1C(=O)[C@H]2[C@@H](c3ccc(C)cc3)N[C@]3(CCCN(CCC(C)C)C3=O)[C@H]2C1=O | -12% | -10%
Cc1cc(C)n2c(NC3CCCCC3)c(CC(C)C)nc2n1 | ? | -16%
CC1(C)S[C@@H]2[C@H](NC(=O)COc3ccccc3)C(=O)N2C1C(=O)OCc1ccccc1 (stereo not given in full) | 4% | -9%
CCOC1=C2[C@@H](CN(S(=O)(=O)c3ccc(C)cc3)[C@H]2c2ccccc2Cl)[C@H]2C(=O)N(C)C(=O)[C@H]2C1 | -4% | 32%[activator]

Additional records:
Screens in order: RE007 growth inh	2A StopGo
NS(=O)(=O)c1ccc(N2N=C(c3ccccc3)CC2c2ccc(Br)cc2)cc1 (stereo not given)
  -1%	-7%
COc1ccc(CC(N)c2csc(Nc3cccc(OC)n3)n2)cc1 (stereo not given)
  3%	-22%
CC(C)(C)c1ccc(S(=O)(=O)NCCN2CCOCC2)cc1
  3%	33%[activator]
Cc1ccc(C(=O)Nc2nnc(COCCO)s2)cc1
  6%[18.4 µM]	36%[activator]
COC(=O)C1=C(C(=O)OC)[N+]2=C3N(C(=O)NC2(C)C)[C@H](CO)C[C@@]32c3ccccc3N(Cc3ccccc3)[C@@H]12
  13%	-11%
CC(=O)OC(C=C(C)C)C/C(C)=C/COc1c2ccoc2cc2oc(=O)ccc12 (stereo not given)
  1%	-24%
COc1ccc(NC(=O)C2Cc3c(-c4ccc(Cl)cc4)ccnc3O2)cc1OC (stereo not given)
  -14%	?
CC(C)C[C@H]1CNC(=S)N1C[C@H]1CCCN1C[C@H](Cc1ccc(O)cc1)N1C[C@H](CC(C)C)N(CCc2ccccc2)C1=S
  -4%	-12%
CC(=O)c1ccccc1OCCCOc1cccc2cccnc12
  -5%	-18%
C[C@@H]1CN([C@H](C)CO)C(=O)CCCn2cc(nn2)CO[C@H]1CN(C)C(=O)Nc1ccc(C(F)(F)F)cc1
  -9%	-5%
Cc1cccc2c1Sc1ccc(Cl)cc1CC2N1CCNCC1 (stereo not given)
  18%	?
CCNC(=O)C1(C)CCN(C(=O)c2ccc(-c3ccccc3)cc2)C1 (stereo not given)
  -6%	-9%
C=C(C)Cn1c2ccc(NC(=O)CCc3cccnc3)cc2c(=O)n1C
  0%	-12%
CCOC(=O)C1=C(COC(=O)c2ccc(Cl)c(S(=O)(=O)N3CCOCC3)c2)NC(=O)NC1C (stereo not given)
  5%	?
CN(C(=O)c1cccc(NC(=O)Cc2ccc(NC(=O)C3CCN(C(=O)CCc4ccccc4)CC3)cc2)c1)C1CCC1
  -17%	?
CN(Cc1ccccc1)C(=O)c1cccc(NC(=O)Cc2cccc(NC(=O)C3CCN(C(=O)c4ccccc4)CC3)c2)c1
  1%	-17%
COc1ccccc1-c1cccc([C@@H]2C[C@H]3[C@H](CON3C)CN2S(=O)(=O)c2ccccc2C)c1
  -10%	?
CCCCNC(=O)c1cc2nc(-c3ccc(OC)cc3)cc(C(F)(F)F)n2n1
  -8%	-9%
COc1ccc(CCNC(=O)c2ccc(NC(=O)CC3SC(N4CCCC4)=NC3=O)cc2)cc1OC (stereo not given)
  2%	-22%
CC(=O)Oc1ccc(OC(C)=O)c2c1CC1(C)OC1(C)C2 (stereo not given)
  4%	-13%
O=c1[nH]c2ccccc2n1C1CCN(C(c2ccccc2)c2nnnn2-c2ccc3c(c2)OCCO3)CC1 (stereo not given)
  -9%	-26%
C=CCOC(=O)Nc1nc(CCNC(=O)OC(C)(C)C)c(C(=O)O)s1
  0%	-1%
O=C(Nc1ccc2ccccc2c1)C(c1ccc(C(F)(F)F)cc1)n1c(=O)c(-c2cc3ccccc3[nH]2)nc2ccccc21 (stereo not given)
  -3%	-2%
Cc1ccc(Cc2c(-c3ccccc3)nc3c(Cl)cc(C(F)(F)F)cn23)cc1
  0%	3%
CC1=C(C)CN2CC(C#N)=C(N)C2C1 (stereo not given)
  -1%	-16%
O=C(NCC1CC1)c1csc([C@@H]2O[C@H](CO)[C@H](O)[C@H](O)[C@H]2O)n1
  7%[18.4 µM]	-9%
CN(C)CCNc1ncnc2c1ncn2[C@H]1CN(Cc2ccc(-c3ccccc3)cc2)C[C@@H](CO)O1
  -29%	?
Cc1cc2nc(-c3cccc(Br)c3)c(CC3CCCCC3)n2c(C)c1Br
  -12%	-12%
O=C(OC1CC2CC1[C@H]1CCCCN1C2=O)N1CCOCC1 (stereo not given in full)
  2%	-20%
COc1ccc(C(CNC(=O)c2ccc(S(=O)(=O)Nc3cccc(C)c3C)cc2)N2CCOCC2)cc1 (stereo not given)
  -8%	-4%
O=C(Nc1ccc(S(=O)(=O)N2CCCC2)cc1)C1CC(=O)N(CCc2ccccc2)C1 (stereo not given)
  17%	0%
COC(=O)[C@@]12C[C@@H](CC(=O)NCc3cccc(C(F)(F)F)c3)C(=O)N(Cc3cccc4ccccc34)C1=CCC(C)(C)C2
  7%	-22%
C[C@H]1CN([C@@H](C)CO)C(=O)CCCn2nncc2CO[C@@H]1CN(C)C(=O)Nc1ccc2c(c1)OCO2
  0%	-18%
